Bioassay records as filed in PubChem BioAssay.
KCNQ2 enhance: potentiators of rat KCNQ2 potassium channel; CHO-K1 KCNQ2, FluxOR thallium flux fluorescence; stronger effect = higher value; B-score at 10 µM; 0.54% of 310,000 active; AID 2239;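 active = fluorescence ratio B-score at least 3 SD of library B-scores, with initial fluorescence B-score within 3 SD, cut at about 5.3 in these data; same plate scores as AID 2156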;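 note: B-score of peak minus minimum over baseline fluorescence ratio after K+ and Tl+ stimulus; positive B-score means potentiation of KCNQ2 with more thallium influx and brighter signal; only the inactives scoring about 0 or higher are listed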
Target sequence (O88943 whole entry, looked up): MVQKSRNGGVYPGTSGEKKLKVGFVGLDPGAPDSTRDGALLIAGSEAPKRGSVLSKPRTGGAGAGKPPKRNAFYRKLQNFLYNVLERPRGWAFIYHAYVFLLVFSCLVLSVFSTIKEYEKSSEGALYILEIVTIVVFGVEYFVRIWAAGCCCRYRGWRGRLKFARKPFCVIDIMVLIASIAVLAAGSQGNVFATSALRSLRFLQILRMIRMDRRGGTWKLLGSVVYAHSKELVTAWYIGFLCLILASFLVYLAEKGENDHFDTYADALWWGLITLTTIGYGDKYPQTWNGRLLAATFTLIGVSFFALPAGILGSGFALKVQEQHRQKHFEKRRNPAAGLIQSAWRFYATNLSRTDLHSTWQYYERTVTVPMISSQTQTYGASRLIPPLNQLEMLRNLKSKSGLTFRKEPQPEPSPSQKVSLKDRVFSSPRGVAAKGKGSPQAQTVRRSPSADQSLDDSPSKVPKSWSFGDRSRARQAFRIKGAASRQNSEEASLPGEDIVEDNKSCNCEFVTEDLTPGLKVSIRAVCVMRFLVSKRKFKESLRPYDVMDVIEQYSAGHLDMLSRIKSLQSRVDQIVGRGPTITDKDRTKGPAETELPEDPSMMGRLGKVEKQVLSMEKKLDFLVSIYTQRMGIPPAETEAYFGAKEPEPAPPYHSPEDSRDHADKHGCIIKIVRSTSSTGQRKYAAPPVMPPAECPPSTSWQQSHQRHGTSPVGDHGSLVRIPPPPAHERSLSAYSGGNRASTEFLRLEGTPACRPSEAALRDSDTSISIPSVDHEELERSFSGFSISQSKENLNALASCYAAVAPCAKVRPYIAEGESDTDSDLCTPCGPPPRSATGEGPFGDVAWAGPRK
KCNQ2 enhance baseline: further read-out of KCNQ2 enhance, marked with its call; B-score; compound at 10 µM; measured here: initial fluorescence intensity artifact check;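 brightness before thallium and not channel activity; 0 = typical well and far values either way flag optical interference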
Numbers without * were called inactive.

Compound,KCNQ2 enhance,KCNQ2 enhance baseline
Cc1cc(Nc2c(C)n(C)n(-c3ccccc3)c2=O)n2c(nc3ccccc32)c1C#N,0.09,1.4
O=c1cc(O)c2c(=O)n(-c3ccccc3)c3c(c2o1)CCCCC3,1.3,0.91
O=C(CN1CCN(Cc2ccccc2)CC1)N/N=C/C=C/c1ccccc1[N+](=O)[O-],0.4,-0.21
C(=N\c1nccs1)/Nc1nccs1,0.28,-2.4
Cc1ccc(-c2nc(C3CCCN(S(=O)(=O)c4ccc(C(C)(C)C)cc4)C3)no2)cc1 (stereo not given),1.2,-0.46
CCN(C(=O)Cn1c(=O)oc2ccccc21)c1cccc(C(F)(F)F)c1,0.53,0.33
CCOc1ccc2nc3sc(C(=O)N4CCN(C)CC4)c(N)c3cc2c1,1.3,0.18
CCOc1ccc(N(C(=O)CNC(=O)c2ccco2)C(C(=O)NC2CCCC2)c2cccnc2)cc1 (stereo not given),0.18,0.73
Clc1ccc(Cc2ccccc2)nn1,0.56,-1.4
CCCCNC(=O)c1ccccc1NC(=O)CCC,0.1,-0.26
N#CC1(NC(=O)COc2ccccc2[N+](=O)[O-])CCCCC1,1.3,-0.06
O=C(CN1C(=O)COc2ccccc21)NNC(=O)Nc1ccccc1F,2.4,0.58
CCOC(=O)/C(C#N)=C/c1ccc(OC)c(OC)c1,0.06,0.84
Nc1nc(Nc2ccccc2)nc2ccccc12,2.8,0.05
Cc1n[nH]c(C)c1SCC(=O)Nc1ccc(F)cc1,1.4,0.05
COc1ccc(N2CC(C(=O)NC3=NCCS3)CC2=O)cc1 (stereo not given),1.1,-0.94

Looked up one by one from above, 4 records:
Compound,KCNQ2 enhance,KCNQ2 enhance baseline
Clc1ccc(Cc2ccccc2)nn1,0.56,-1.4
O=C(CN1CCN(Cc2ccccc2)CC1)N/N=C/C=C/c1ccccc1[N+](=O)[O-],0.4,-0.21
CCOc1ccc2nc3sc(C(=O)N4CCN(C)CC4)c(N)c3cc2c1,1.3,0.18
Nc1nc(Nc2ccccc2)nc2ccccc12,2.8,0.05

(list continues)
Compound,KCNQ2 enhance,KCNQ2 enhance baseline
COC(=O)C1CN(S(=O)(=O)c2ccc(NC(C)=O)cc2)CCS1 (stereo not given),0.04,0.19
O=C(COC(=O)CSc1ccc([N+](=O)[O-])cc1)NCCCc1ccccc1,0.94,-1.4
CCC1(C)Cc2ccccc2-c2nc(SCC(N)=O)[nH]c(=O)c21 (stereo not given),0.21,-0.01
Cc1cc(Br)c(NC(=O)Cn2c([N+](=O)[O-])cnc2C)cc1C,0.29,1.7
Cc1ccc2nc(SCC(=O)NCc3ccc(S(N)(=O)=O)cc3)[nH]c2c1,0.9,-2
COCCCNC(=O)Cn1nnc(-c2ccc(NC(=O)c3ccccc3F)cc2)n1,0.07,-3
CCCC(=O)Nc1cc2c(cc1C(C)=O)OCCO2,1.4,0.04
Cc1cccc(CS(=O)(=O)c2cn(CC(=O)N3CCOCC3)c3ccccc23)c1,0.07,0.37
CC(C)CCNC(=O)CCCOc1ccccc1,0.22,-1.8
O=C(CSc1ccc(-c2nc3ccccc3[nH]2)cn1)Nc1ccc(S(=O)(=O)N2CCCC2)cc1,0.15,-0.27
O=C(N/N=C/c1ccc(Cl)cc1Cl)c1ccncc1,1.3,-0.11
Cc1ccccc1NC(=O)CSc1nnc2ccc(-c3ccccn3)nn12,0.74,-0.49
CCOC(=O)C1=c2/c(=C/c3ccccc3OC)c(N)c(C#N)n2C(=O)C(c2ccccc2OC)S1 (stereo not given),0.59,-1.6
O=C(CCSc1nnc2ccc3ccccc3n12)Nc1ccc(F)cc1,0.77,-0.35
Cc1ccnc(NCc2ccc(Cl)cc2)c1,0.28,-0.38
O=C(c1ccc2snnc2c1)N1CCN(c2ccccn2)CC1,0.07,1.9
CCC1CCCCN1CCCNC(=O)CCNC(=O)Cn1cnc2ccccc2c1=O (stereo not given),0.43,0.51
Cc1cc(C)nc(Oc2ccc(Br)cc2Br)n1,0.1,-0.4
CCn1nc(C(=O)Nc2ccc(S(=O)(=O)Nc3nccs3)cc2)c2ccccc2c1=O,0.25,0.59
O=C(NCc1ccco1)c1ccccc1,1.1,1.7
Cc1ccc(S(=O)(=O)Nc2cccc(C(=O)N3CCOCC3)c2)c(C)c1NS(C)(=O)=O,0.64,-1.7
N/C(=N\S(=O)(=O)c1ccc(Cl)cc1)N1CCOCC1,1.9,0.01
COc1ccccc1N1CCN(C(=O)CCc2nnc3ccc(N4CCCC4)nn23)CC1,1.5,-0.52
C=CCc1ccc(OC(=O)NC2CCCCC2)c(OC)c1,2,-0.01
CCC(C(=O)NC1CCN(C)CC1)c1ccccc1 (stereo not given),0.91,-0.43
CCNS(=O)(=O)c1ccc(NC(=O)Cn2cc([N+](=O)[O-])cn2)cc1,0.48,-2.6
Cc1c(Cl)cccc1NC(=O)[C@@H](NC(=O)c1ccccc1Cl)C(C)C,0.06,-3.9
COc1cc(/C=C(\C#N)C(=O)Nc2cccc(C(=O)O)c2)ccc1OCc1ccc(Cl)cc1,1.5,-0.39
Cc1cc(=O)n(CCCc2ccccc2)[nH]1,1.6,-0.02
Cc1cccc(NC(=O)NC2(C(=O)NCc3ccco3)CCCCC2)c1,1.7,-0.66
O=C(NC1CC1)c1c(O)c2ccccc2[nH]c1=O,0.26,-0.21
Cc1cnc(C(=O)OCC(=O)N2CCc3ccccc32)cn1,0.28,0.2
COc1ccc(OCCNC(=O)c2ccc(C)cc2)cc1,0.47,-0.55
NC1=NC[C@@H](Cc2ccc(O)cc2)N1CCC12CC3CC(CC(C3)C1)C2,0.44,-0.03
O=C(NCCCN1CCOCC1)c1ccc(Cl)c(S(=O)(=O)N2CCCCCC2)c1,3.8,-0.77
COCCNc1nc(N)c([N+](=O)[O-])c(NC2CCCCC2)n1,1.6,-0.52
CC(=O)Nc1ccc(NC(=O)C(C)NC(C)c2cccc3ccccc23)cc1 (stereo not given),0.82,-1.2
CC(=O)OCC[C@H](NS(=O)(=O)OCC(Cl)(Cl)Cl)c1ccccc1,2.1,0.78
CCOC(=O)c1sc(/N=C/C2=C(O)CC(C)(C)CC2=O)c(C(=O)OCC)c1C,0.14,0.29
Cc1ccc(C(=O)C2CCN(CC(=O)NCc3ccc(F)cc3)CC2)cc1,0.51,0.14

Structural class, the entries above containing a thiophene ring, fused or not.
Compound,KCNQ2 enhance,KCNQ2 enhance baseline
CCOc1ccc2nc3sc(C(=O)N4CCN(C)CC4)c(N)c3cc2c1,1.3,0.18
CCOC(=O)c1sc(/N=C/C2=C(O)CC(C)(C)CC2=O)c(C(=O)OCC)c1C,0.14,0.29

New compounds follow.
Compound,KCNQ2 enhance,KCNQ2 enhance baseline
CC(C)n1c(-c2ccc(C(C)(C)C)cc2)n[nH]c1=S,0.31,0.09
CC(=O)Nc1nonc1NC(=O)c1ccc(C(C)(C)C)cc1,2.2,-2.6
CCC(=O)C1CCCN(C(=O)c2ccc(OC3CCN(C(=O)CCOC)CC3)cc2)C1 (stereo not given),0.49,-0.01
Cn1nc(-c2ccc(N3CCOCC3)c(NS(=O)(=O)c3ccccc3)c2)c2ccccc2c1=O,0.08,-0.89
C/C(=N\NC(=O)c1nn(C)cc1Br)c1cccc(NC(=O)C(C)(C)C)c1,0.02,0.03
CCOC(=O)C(CC)/C(C)=N/NC(=O)c1ccc([N+](=O)[O-])cc1 (stereo not given),0.2,-0.25
CC(=O)Nc1ccc(S(=O)(=O)N(C)c2ccc(O)cc2)cc1,0.28,0.19
O=C(NCCc1ccccc1)c1ccc2[nH]c(=O)c(=O)[nH]c2c1,0.03,0.59
O=C(CCc1ccccc1)Nc1cc2c(cc1Cl)OCCO2,0.97,0.58
CN1C(=S)SC(N2OC3C(=O)N(c4ccccc4)C(=O)C3C2c2ccc(Cl)cc2)C1(C)C (stereo not given),0.79,-0.37
c1coc(C2Nc3ccccc3C3OCCC23)c1 (stereo not given),0.24,0.19
Cc1ccc(C(C)NC(=O)c2cc(C)oc2C)cc1 (stereo not given),0.77,1.7
Cc1ccc(CNC(=O)c2cccc(S(C)(=O)=O)c2)cc1,0.7,0.44
O=C(CN1C(=O)/C(=C/c2ccccc2)Sc2ccccc21)NCCCN1CCOCC1,1.9,0.02
CN1CCN(C(=O)CCCN2C(=O)/C(=C/c3ccccc3)SC2=S)CC1,1.9,-0.02
COc1ccc(C2NC(Cc3ccccc3)(C(=O)O)C3C(=O)N(c4ccccc4OC)C(=O)C23)cc1 (stereo not given),0.63,-1.2
O=C(COC(=O)/C=C/c1ccc([N+](=O)[O-])cc1)NCc1ccc2c(c1)OCO2,2.5,0.49
COc1ccc(-c2noc(C(C)NS(=O)(=O)c3ccc(NC(C)=O)cc3)n2)cc1 (stereo not given),0.13,-0.85
COc1ccc(CNC(=O)CSc2nnc(-c3ccc(NC(C)=O)cc3)n2C)cc1,0.81,-0.36
CC1Cc2ccccc2N1C(=S)NC(=O)c1cccc(Br)c1 (stereo not given),28*,1.2*
O=C(c1ccc(Br)cc1)N(Cc1ccco1)C1CCS(=O)(=O)C1 (stereo not given),0.27,-0.36
O=c1c(N=Nc2ccc(O)cc2)c(-c2ccccc2)[nH]n1-c1ccc([N+](=O)[O-])cc1,0.41,0.38
CC(=O)Oc1ccc(/C=C(\NC(=O)c2ccco2)C(=O)NCc2ccccc2)cc1,0.9,-0.38
O=C(NNC(=O)C1COc2ccccc2O1)c1ccccc1 (stereo not given),0.04,-0.72
COc1cccc(NC(=O)CC2S/C(=N\S(=O)(=O)c3ccccc3)N(c3ccccc3)C2=O)c1 (stereo not given),0.75,-0.95
OCCC1CN(Cc2nc3ccc(F)cc3[nH]2)CCN1C1CCCC1 (stereo not given),2,-2.1
COc1ccc(CNC(=O)C(c2ccco2)N(Cc2cccs2)C(=O)Cc2cccs2)cc1 (stereo not given),0.01,0.63
O=C(Cc1csc(NC(=O)Nc2ccc(Cl)cc2)n1)NCc1cccnc1,0.3,1.8
Cn1cc(C(=O)c2ccccc2C(=O)O)cc1C(=O)C(Cl)(Cl)Cl,0.03,0.08
O=C(O)c1ccc(C[n+]2c(-c3ccccc3)csc2Nc2ccccc2)cc1,1,0.06
CCn1c(SCC(=O)Nc2cc(C)nn2-c2ccccc2)nnc1-c1cccs1,0.92,-0.46
COC(=O)C1C(c2ccccc2)C(C(=O)N2CCN(C)CC2)C1c1ccccc1 (stereo not given),1.1,-1
Oc1cccc(C(=S)N2CCC(Cc3ccccc3)CC2)c1,0.07,-1.6
Cc1nc(Nc2ccc(S(=O)(=O)N3CCCCC3C)cc2)c2nnn(Cc3ccccc3)c2n1 (stereo not given),2.2,-0.07
CCOc1ccc(NS(=O)(=O)c2ccc(NC(=O)c3ccccc3C(=O)O)cc2)cc1,0.76,-0.91
Cn1c(CNC(=O)c2ccco2)nnc1SCC(=O)Nc1c(F)cc(F)cc1Br,0.31,-1.8
N/C(=N\OC(=O)CC1CCCCC1)c1ccccn1,1.4,0.28
O=C(NN1C(=O)/C(=C/c2ccc(O)c([N+](=O)[O-])c2)SC1=S)c1ccccc1Cl,1,-3.3
O=C(O)c1ccc(-n2cncn2)c([N+](=O)[O-])c1,0.34,1.9
CCOc1ccc(-n2c(SCc3cc(=O)oc4cc(C)ccc34)nnc2-c2cccnc2)cc1,0.46,0.14
Cc1ccc(-c2nn3c(C)nnc3s2)cc1NC(=O)c1ccc(Br)o1,0.07,-0.67
Cn1cnc([N+](=O)[O-])c1Nc1cccc(O)c1,0.07,0.49
COc1ccc(S(=O)(=O)c2nnn(-c3cccc(Cl)c3)c2N)cc1,1.5,-1.6
CC(C)(C)CC(=O)Nc1ccc(-c2cn3cccnc3n2)cc1,0.74,-1.5
COc1ccc(CC2(CO)CCN(Cc3cccc4nccnc34)CC2)cc1,0.25,-0.69
O=C(NCC1CC1)c1onc(CSc2ccncc2)c1C(=O)NCC1CC1,0.82,1.1
CC1(C(=O)NCc2cccnc2)CCC(=O)N1Cc1cccs1 (stereo not given),1.8,0.87
Fc1ccc(N2CCN(Cc3ccccn3)CC2)cc1,0.07,0.01
Cc1nc(Nc2ccccc2F)c2oc3ccccc3c2n1,0.2,-0.94
Cc1[nH]c2ccc(Br)cc2c(=O)c1CN1CCOCC1,0.25,-1.2
COc1cccc(/C=N/NC(=O)c2ccc(N3CCCC3=O)cc2)c1,0.02,1.2
O=c1c(Cl)c(Nc2cccc(Cl)c2)cnn1-c1nc2ccccc2s1,0.76,-2.4
O=C(O)Cn1nnnc1-c1ccc(F)cc1,1.4,1
Cc1ncsc1CCOC(=O)c1ccccc1,2,-1.8
CCOc1ccc(C(=O)N[C@H](C(=O)Nc2ccccc2OC)C(C)C)cc1,0.67,-1.1
NC(=O)Cn1c(=O)n(CCc2ccccc2)c(=O)c2c3c(sc21)CCCC3,0.74,-0.6
O=C(O)C1CCCCN1S(=O)(=O)c1ccccc1 (stereo not given),0.73,-0.08
CCCS(=O)(=O)Nc1c(C(=O)OC)[nH]c2ccccc12,0.37,-0.56
COc1c(Br)cc(Br)cc1/C=C1/C(=O)N=C(N)N1C,0.84,-0.53

An excerpt; the hit share may differ from the screen's.
